# Bst PK mod = pyruvate kinase (B. stearothermophilus) modulation. partly purified Bacillus stearothermophilus pyruvate kinase, luminescence ATP production; ribose 5-phosphate activator present at AC10. Potency, µM. hit rate 1.2% among 51,000. AID 361; in the data active means potency below about 11 µM; inconclusive means mostly about 12 µM to 25 µM; inactive means weaker than that;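 the screen sought inhibitors and activators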;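 note: potency is the fitted concentration of half-maximal effect; scaled between full activation by ribose 5 phosphate and full inhibition by luteolin; about four in five hits inhibit and the cells do not say which; series up to 57 µM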
# YjeE inh = displaces an ADP probe from E. coli YjeE (TsaE); P0AF67; purified YjeE, fluorescence polarisation of a bound ADP probe; Potency, µM; hit rate 0.05% among 71,000; AID 605; active = well fitted falling curve; inconclusive = weaker or top-dose-only fall, or a rising curve; inactive = flat or poorly fitted curve;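 note: top concentration of the series not given in the record; excess ADP was the control for the full effect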
#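 Purified YjeE (10 uM) with BODIPY Texas Red-labeled ADP probe (2 uM); compounds pin-transferred, 15 min at room temperature. Binding inhibition read as decreased fluorescence polarization; ADP titration as control.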
# * = called active by the depositor; i = inactive; ? = inconclusive; / = no result given.
Compound | YjeE inh | Bst PK mod
CCC(Oc1ccccc1)C(=O)N1CC(C)CC(C)C1 (stereo not given) | i | >57
CC(C)C[C@@H](CC(=O)N[C@H](CC(=O)N[C@@H]1CCNC[C@H]1C(=O)N[C@H](CC(=O)N[C@@H](CCC(=O)O)CC(=O)O)Cc1ccccc1)C(C)C)NC(=O)[C@@H]1CCCC[C@H]1N | i | /
Cc1cccc(N(CC(=O)N2CCCC2)S(=O)(=O)c2ccccc2)c1 | i | >57
CCOCN(C(=O)Cn1c(CO)nc2ccccc21)c1c(C)cccc1CC | i | /
O=C(NC1(C(=O)NC2CCCCC2)CCCCC1)c1ccc2c(c1)OCO2 | i | >57
O=c1c(-c2cccc(F)c2)nc2cncnc2n1C1CC1 | i | /
CCCCN(CCCNC(=O)c1c(C)cc(=O)oc1C)c1ccccc1 | i | >57
Cc1nn(-c2cccc(Cl)c2)c2c1C(c1cccnc1)C(C#N)=C(N)O2 (stereo not given) | i | >57
Cc1c(CN2CCN(c3cccc(C(F)(F)F)c3)CC2)c(=O)n(-c2ccccc2)n1C | i | >57
Cc1ccc(-n2ncc3c(N4CCC(C(N)=O)CC4)ncnc32)c(C)c1 | / | >26
Cc1ccc(C)n1-c1ccc(-c2nnc3n2CCCCC3)s1 | i | >57
Cc1cccn2cc(-c3ccccc3)nc12 | i | ?
COC(=O)CNC(=O)C1CCCN1C(=O)OC(C)(C)C (stereo not given) | i | >57
OC(Cn1cccn1)c1ccccc1 (stereo not given) | i | >57
CCCn1c(C)nc2c(NC3CCN(Cc4ccccc4)C3)nc(C)nc21 (stereo not given) | i | /

Compound | YjeE inh | Bst PK mod
O=C(Nc1ccc(Cl)cc1)c1ccncc1 | i | /
Cc1nnc(SCC(=O)NC(C)(C)C)n1CCc1ccccc1 | i | >57
COc1ccccc1CCn1c(=O)c(-c2cccc(F)c2)nc2cncnc21 | i | /
CN(C)c1nc(OCCOC(=O)Nc2ccc(Cl)cc2Cl)nc(N(C)C)n1 | / | >26
O=C(CN1C(=O)NC2(CCCCC2)C1=O)Nc1ccc(S(=O)(=O)N2CCOCC2)cc1 | i | >57
Nc1c(C(=O)NC2CCCC2)sc2nc(-c3cccs3)ccc12 | i | >57
Cc1ccc(C(C)C)c(OCC(=O)OCc2c(C)noc2C)c1 | i | >57
COCCCN(Cc1ccccn1)S(=O)(=O)Cc1ccccc1 | i | >57
COc1ccc(-c2nn3c(-c4ccccc4)nnc3s2)cc1 | i | 3.4*
c1ccc(-n2ncc3c(NCc4cccnc4)ncnc32)cc1 | i | /
CC(=O)N1CCCc2cc(S(=O)(=O)N3CCN(C4CCCCC4)CC3)ccc21 | i | >57
Cc1nn(Cc2ccccc2Cl)c(C)c1C(=O)NC1=NCCS1 | i | >57
Cc1ccc(S(=O)(=O)NC(=O)NN2C[C@H]3CCC[C@@H]3C2)cc1 | i | /
CCc1nnc(NC(=O)CSc2nnc3c4ccccc4n(C)c3n2)s1 | i | >57
CCOC(=O)c1sc2ncnc(OC)c2c1C | i | >57

Compound | YjeE inh | Bst PK mod
COc1ccccc1N1CCN(C(=O)c2cc(-c3cccc(Cl)c3)on2)CC1 | i | >57
Cc1ccccc1C(C(=O)NCc1ccco1)N(CC1CCCO1)C(=O)Cn1nnc2ccccc21 (stereo not given) | i | >57
Cc1cc(N=Cc2c(CO)cnc(C)c2O)c(N=Cc2c(CO)cnc(C)c2O)cc1C.[Zn] | i | /
Cc1cccc(Nc2nc(NCc3ccco3)nc(N3CCOCC3)n2)c1 | i | >57
COC(=O)c1ccc(CSc2nnc3n(Cc4ccccc4OC)c(=O)c4ccccc4n23)o1 | i | >57
CCOC(=O)c1c(C)c(C(=O)NCc2ccco2)c(C)n1Cc1ccccc1 | i | >57
CC(C)OC(=O)CN1CCN(S(=O)(=O)c2cc(Cl)ccc2Cl)CC1 | i | >57
Cc1cc(NC(=O)COc2nnc(-c3ccccc3)c3ccccc23)no1 | i | >57
CC(C)Nc1nc2n(c(=O)n1)CCN2C(C)C | i | >57
COc1ccccc1N(CC(=O)Nc1ccccc1C(=O)NCC(C)C)S(C)(=O)=O | i | >57
CCCn1nnc(NC(=O)c2ccccc2Cl)n1 | i | >57
CCC(=O)Nc1ccc(NC(=O)CSc2nnnn2C(C)C)cc1 | i | >57
COc1ccc(-n2cc(-c3ccccc3)c3c(N4CCN(CCO)CC4)ncnc32)cc1 | i | /
COc1cc(CCC(=O)OCn2nnc3ccccc3c2=O)cc(OC)c1OC | i | >57
C=CCSc1n[nH]c(-c2ccc(OCCC)cc2)n1 | i | /

Compound | YjeE inh | Bst PK mod
CCOc1nc(-c2ccccc2)ccc1-c1noc(-c2ccco2)n1 | i | >57
O=C(c1ccccc1)N1CCN(C(=O)N2CCOCC2)CC1 | i | /
CCOc1ncccc1C(=O)Nc1ccc(-c2cn3ccsc3n2)cc1 | i | >57
O=C(CCCOc1ccccc1)n1nnc2ccccc21 | i | /
CCN1CCN(C(=O)CS(=O)(=O)Cc2nc(-c3ccc(C)cc3)oc2C)CC1 | i | /
CCCCOC(=O)Nc1ccc(C(=O)OCCC)cc1 | i | /
C[C@@]1(C(NS(=O)(=O)c2cccc3cccnc23)c2ccc(-c3ccccc3)cc2)C[C@H]1C1CCCCC1 (stereo not given in full) | i | /
COc1ccc(C(=O)N2CC3(C)CC2CC(C)(C)C3)cc1 (stereo not given) | i | >57
Cc1ccc(NC(=O)CSc2nnc(NC(=O)CN3CCOCC3)s2)cc1 | i | >57
Cc1noc(C)c1C(=O)N1CCC2(CC1)CCN(c1ncccn1)CC2 | i | /
Cn1c(NCc2ccccc2O)nc2ccccc21 | i | >57
O=C1CC(O)(C(F)(F)F)Oc2c1ccc1ccccc21 (stereo not given) | i | /
COc1ccc(N2C(=O)C(CC(=O)Nc3ccccc3)N(Cc3ccc4c(c3)OCO4)C2=O)cc1 (stereo not given) | i | >57
COc1ccc2oc(-c3ccc(O)cc3)cc(=O)c2c1 | i | /
COc1ccccc1-c1nnc(SCC(=O)NC2CCCCC2)o1 | i | /

Compound | YjeE inh | Bst PK mod
CCCCCN=Cc1c(C)[nH]n(-c2nc3ccccc3s2)c1=O | i | /
Cc1nc2cc(NC(=O)NCc3ccco3)ccc2n1C | i | >57
Cn1c(=O)c2c(-c3ccccc3)n(Cc3ccccn3)cc2n(C)c1=O | i | >57
O=C(CSc1nc(O)cc(=O)[nH]1)N1CCCc2ccccc21 | i | /
CCN1CCCC1CNC(=O)CCc1nc(-c2ccc(C)cc2)no1 (stereo not given) | i | >57
COc1ccc(NC(=O)CSc2nc(O)cc(=O)n2-c2ccccc2OC)cc1 | i | /
CN1CCN(c2ncc3nc(-c4cccs4)c(=O)n(-c4ccccc4)c3n2)CC1 | i | /
CCc1ccc2[nH]c(=O)c(CN(CCO)C(=O)NCc3ccccc3)cc2c1 | i | /
COc1ccc(OC)c(S(=O)(=O)N2Cc3ccccc3CC2C(=O)Nc2nccs2)c1 (stereo not given) | i | >57
O=C(COC(=O)CCNS(=O)(=O)c1ccc(Cl)cc1)NCc1ccco1 | i | i
COc1ccc2c(C(=O)CN3CCN(CCO)CC3)c[nH]c2c1 | i | >57
c1ccc(CN2CCN(c3ncccn3)CC2)nc1 | i | >57
Cc1cc(=O)oc2cc(OC(C)C)ccc12 | i | /
CN1Cc2c(C(=O)OC(C)(C)C)ncn2-c2ccsc2C1=O | i | /
c1ccc(Nc2nc(-c3cccnc3)nc3ccccc23)cc1 | i | /

Compound | YjeE inh | Bst PK mod
C=C(C)c1cccc(C(C)(C)NC(=O)N2CCN(CC)CC2)c1 | i | >57
COc1ccc(NC(=O)CN2CCN(CC(=O)Nc3ccc(OC)c(OC)c3)CC2)cc1 | i | >57
COc1cc(OC)cc(C(=O)N2CCN(C(=O)c3ccc(OC)c(OC)c3)CC2)c1 | i | >57
O=C(CN1CCN(CCC(=O)Nc2ccccc2F)CC1)Nc1ccc(F)cc1 | i | >57
O=C(c1nc2nc(-c3ccc(Cl)cc3)cc(C(F)(F)F)n2n1)N1CCOCC1 | i | /
O=C(CCc1ccccc1)Nc1ccc(NC(=O)c2ccco2)cc1 | i | /
Cc1ccccc1N1C(=O)CC(N(O)c2ccccc2)C1=O (stereo not given) | i | >57
COc1ccc(C)cc1NC(=O)c1ccoc1C | i | /
O=C(CN1C2=NCCN2c2ccccc21)c1ccc2c(c1)OCO2 | i | >57
O=C(c1cc2nc(-c3ccc(F)cc3)cc(C(F)(F)F)n2n1)N1CCCC1 | i | /
Cc1ccc2c(c1)NC(=O)C(N1CCOCC1)(C(F)(F)F)O2 (stereo not given) | i | >57
COc1ccc(CCNC(=O)CCSc2nc(-c3ccco3)cc(C(F)(F)F)n2)cc1OC | i | >57
CCc1cccc(NC(=O)CN2C(=O)NC3(CCCCCCC3)C2=O)c1 | i | >57
O=C(O)C1CC(=O)N(c2ccc(OCc3ccccc3Cl)cc2)C1 (stereo not given) | i | >57
CCn1c(COc2ccccc2)nnc1SCC(=O)C(C)(C)C | i | >57

Compound | YjeE inh | Bst PK mod
COCCn1c(=O)c(-c2cccc(C#N)c2)nc2cnc(N3CCNCC3)nc21 | i | /
Fc1ccc(-c2nnc(CSc3nnc(-c4ccc5c(c4)OCO5)o3)o2)cc1 | i | /
CCCc1[nH]nc2c1C(c1ccc(OCCN3CCOCC3)c(OCC)c1)C(C#N)=C(N)O2 (stereo not given) | i | >57
COC(=O)[C@@H](NC(=O)NC(C)CCc1ccccc1)C(C)C (stereo not given in full) | i | >57
CCN(CC(=O)N1CCN(C)CC1)S(=O)(=O)c1ccc(Cl)cc1 | i | >57
CCOc1ccc(N2C(=O)CC(N)C2=O)cc1 (stereo not given) | / | >26
O=c1c2[nH]c3ccccc3c2ncn1CCN1CCOCC1 | i | /
CCCN=C(N)/C(C(=O)OCC)=C(\O)c1ccc(OC)cc1 | i | >57
COc1cccc(C(=O)NC2CC3CCCC(C2)N3CC(=O)Nc2ccccc2)c1 (stereo not given) | i | >57
COc1ccc(OC)c(C2=NOC(C(=O)NCc3ccccn3)C2)c1 (stereo not given) | i | >57
O=C(CSc1nnc2ccccn12)NCc1cccs1 | i | >57
CCOc1ccc(N=C(NC#N)SC)cc1 | i | >57
CC12CN3CC(C)(CN(C1)C3c1ccc(Cl)cc1Cl)C2=O (stereo not given) | i | /
COCCn1c(=O)c(CCc2ccccc2)nc2cncnc21 | i | /
O=C1C2C3C=CC(C3)C2C(=O)N1c1cccc(-c2nc3ccccc3o2)c1 (stereo not given) | i | /

# An excerpt of these results, field by field.
c1ccc(CN2CCN(c3ncccn3)CC2)nc1
  YjeE inh: i
  Bst PK mod: >57
Nc1c(C(=O)NC2CCCC2)sc2nc(-c3cccs3)ccc12
  YjeE inh: i
  Bst PK mod: >57
O=C(CN1C(=O)NC2(CCCCC2)C1=O)Nc1ccc(S(=O)(=O)N2CCOCC2)cc1
  YjeE inh: i
  Bst PK mod: >57
Cc1ccc(S(=O)(=O)NC(=O)NN2C[C@H]3CCC[C@@H]3C2)cc1
  YjeE inh: i
  Bst PK mod: /

# New compounds follow:
Compound | YjeE inh | Bst PK mod
CCOC(=O)C1=C(C)N=C2SC(C)C(=O)N2C1/C=C/c1ccccc1OC (stereo not given) | i | >57
Nc1cc(Cl)ccc1N1CCOCC1 | i | >57
Cc1cc(C)n(S(=O)(=O)c2cc(C)c(C)cc2C)n1 | i | >57
Cc1ccc(S(=O)(=O)N2CCCC2C(=O)NC2CCCCC2)cc1 (stereo not given) | i | >57
CCOC(=O)N1CCN(C(=O)c2cc3cc(Br)ccc3oc2=O)CC1 | i | /
Cc1ccccc1CNc1nc(N)n(-c2ccccc2)n1 | i | /
Cn1c(=O)c2c3c(sc2n2c(SCC(=O)c4ccccc4)nnc12)COC(C)(C)C3 | / | >26
c1ccc(Nc2ncncc2-c2ccc3c(c2)OCO3)cc1 | i | /
Cc1n[nH]c(C)c1S(=O)(=O)N1CCCCCC1 | i | >57
CCNC(=O)C(C)Sc1ccc(Cl)cc1 (stereo not given) | i | >57
CCN1CCN(CCCNC(=O)c2csc3c2CCCCC3)CC1 | i | >57
Cc1cccc(CCNC(=O)C2CCCN(S(=O)(=O)c3cccc4nsnc34)C2)c1 (stereo not given) | i | >57
COC(=O)Cc1[nH]nc2c1C(C1C=CCCC1)C(C#N)=C(N)O2 (stereo not given) | i | >57
CCN(CC)CCCNC1CCS(=O)(=O)C1 (stereo not given) | i | >57
CCn1c(CNc2ccc(F)cc2)nnc1SCC(=O)OC1CCCCC1 | i | >57

Compound | YjeE inh | Bst PK mod
CCCCOc1cccc(C(=O)N(Cc2cccs2)C2CCS(=O)(=O)C2)c1 (stereo not given) | i | >57
c1ccc(OCc2nn3c(Cn4cnc5ccccc54)nnc3s2)cc1 | i | >57
COc1ccc(C(c2nnnn2Cc2ccccc2)N2CCN(C(=O)c3ccco3)CC2)cc1 (stereo not given) | i | >57
Cc1cc(C)n2nc(CCc3nc4nc(C)cc(C)n4n3)nc2n1 | i | >57
CCC1CCCCN1C(=O)Cn1c(=O)oc2ccccc21 (stereo not given) | i | >57
CCOC(=O)N1CCC(NC(=O)Cn2ncc3c4ccccc4n(C)c3c2=O)CC1 | i | >57
O=C(COC(=O)c1ccco1)Nc1ccc2c(c1)OCO2 | ? | /
COC(=O)c1c(NC(=O)CCc2ccc(C)o2)sc(C)c1C | i | >57

# Compound activity: PubChem BioAssay, National Center for Advancing Translational Sciences (NCATS)

# An excerpt. The share of hits here may be higher or lower than overall.
